From PubChem BioAssay
Cruzain noTriton: inhibitors of Trypanosoma cruzi cruzain without detergent | P25779 | purified cruzain, Z-FR-AMC fluorescence, no detergent | Potency, µM, for the others: max response, negative = inhibition, most hits filed as inhibitors | actives 2.3% (n = 200,000) | AID 1476;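 note: plate controls were enzyme without inhibitor for no effect and buffer without enzyme for full effect; nearly all actives have a fitted effect of over 40% in size; top concentration of the series not given in the record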
Target sequence (P25779 123-467 limits assumed): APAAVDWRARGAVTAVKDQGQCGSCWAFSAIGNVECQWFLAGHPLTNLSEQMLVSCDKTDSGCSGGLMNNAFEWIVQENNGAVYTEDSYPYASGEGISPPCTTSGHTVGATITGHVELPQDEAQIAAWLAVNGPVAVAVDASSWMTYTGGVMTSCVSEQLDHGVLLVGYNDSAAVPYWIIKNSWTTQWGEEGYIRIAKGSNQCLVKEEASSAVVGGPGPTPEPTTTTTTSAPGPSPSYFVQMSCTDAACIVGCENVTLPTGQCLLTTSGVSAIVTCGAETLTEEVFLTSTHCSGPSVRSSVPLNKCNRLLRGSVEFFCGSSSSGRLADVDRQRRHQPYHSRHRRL
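Purified cruzain at 1.5 nM, pre-incubated 15 min with compound at room temperature in 100 mM sodium acetate pH 5.5, 5 mM DTT, 0.00005% Triton X-100. Reaction started with 2 uM Z-FR-AMC; AMC fluorescence increase over 60 s gives rate.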
SARS PLP yeast: inhibitors of SARS-CoV papain-like protease in yeast; actives 0.19% (n = 330,000); S. cerevisiae expressing SARS-CoV PLpro, growth rescue; control for the full effect not named in the record; Potency, µM (titrated, usually from 32.9 µM), for inactives: at the top dose activity, positive = growth rescue; AID 485353; active means well fitted rising curve with a large enough effect; inconclusive means small, poorly fitted or top-dose-only effect; inactive means no such curve, though single readings can be large or run the other way; note: 0% is about no effect; nearly all actives have a fitted effect of over 55% in size; growth read by luminescence after 48 h
2A StopGo: FMDV 2A StopGo reporter, luciferase signal; human cells with a luciferase reporter of 2A StopGo recoding; control for the full effect not named in the record; Potency, µM (titrated, usually from 57.9 µM), for inactives: at the top dose signal change, negative = less light; actives 1.2% (n = 410,000); AID 1159524; active = well fitted falling curve with a large enough effect; inconclusive = small, poorly fitted or top-dose-only effect; inactive = no such curve, though single readings can be large or run the other way; tested in HEK293T cells; note: % is set by controls: 0 for no effect and ±100 for the full control effect; nearly all actives have a fitted effect of over 45% in size; luciferase light after 4 h
MARV entry inh: blocks Marburg virus binding to or entry into cells. Marburg virus pseudotyped entry inhibition, cell reporter; control for the full effect not named in the record; about a third of the inactives were read at about 46 µM. Potency, µM (titrated, usually from 37.8 µM), for the others: at the highest dose activity change, negative = inhibition, usual class: inhibitors. actives 1.8% (n = 300,000). AID 540276; active = well fitted inhibition curve with a large enough effect; inconclusive = small, poorly fitted or top-dose-only effect, or effect the other way; inactive = flat fitted curve, though single readings scatter; tested in HEK293 cells; about a fifth of its hits are not listed in these tables; note: % is set by controls: 0 for no effect and ±100 for the full control effect; luciferase read-out
Cruzain Triton: inhibitors of Trypanosoma cruzi cruzain with detergent | P25779 | purified cruzain, Z-FR-AMC fluorescence, 0.01% Triton | Potency, µM, for inactives: max response, negative = inhibition, actives largely listed as inhibitors | actives 0.43% (n = 200,000) | AID 1478;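 note: plate controls were neutral wells for no effect and buffer without enzyme for full effect; nearly all actives have a fitted effect of over 40% in size; top concentration of the series not given in the record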
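Detergent-containing run (0.01% Triton X-100) in acetate buffer pH 5.5 with 5 mM DTT: enzyme at 1.5 nM final, 15 min compound preincubation at room temperature, then 2 uM Z-FR-AMC substrate. Activity taken as 60 s fluorescence increase at 360/450 nm.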
RE007 growth inh: less growth of the S. pombe RE007 Vpr strain; Potency, µM (highest dose often 92.2 µM), for inactives: at the highest dose activity change, negative = less growth; AID 651644; S. pombe RE007 Vpr strain, BacTiter-Glo ATP luminescence, 24 h; control for the full effect not named in the record; actives 0.21% (n = 360,000); active = well fitted falling curve with a large enough effect; inconclusive = small, poorly fitted or top-dose-only effect; inactive = no such curve, though single readings can be large or run the other way;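 note: % is set by controls: 0 for no effect and ±100 for the full control effect; nearly all actives have a fitted effect of over 50% in size; the assay follows cell death caused by Vpr and the record does not say whether a fall means rescue or toxicity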
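Fission yeast RE007 carrying one integrated HIV-1 vpr copy, seeded at OD 0.01 in PMG+AL medium with 23 nL pinned compound. Grown 24 h at 30 degrees; viability read by BacTiter-Glo luminescence after 5 min.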
Lassa entry inh: Lassa virus entry inhibition. Lassa virus pseudotype entry inhibition, cell reporter; control for the full effect not named in the record. Potency, µM (highest dose often 37.9 µM), for inactives: at the top dose activity change, negative = inhibition, hits mostly inhibitors. actives 1.2% (n = 300,000). AID 540256; active means well fitted inhibition curve with a large enough effect; inconclusive means small, poorly fitted or top-dose-only effect, or effect the other way; inactive means flat fitted curve, though single readings scatter; tested in HEK293 cells; note: % is set by controls: 0 for no effect and ±100 for the full control effect; nearly all actives have a fitted effect of over 50% in size; luciferase read-out
NS1 inh: blocks influenza NS1 protein function; S. cerevisiae slowed by influenza A NS1, growth recovery by OD600; actives 0.4% (n = 270,000); AID 2326; Potency, µM (doses to about 46.1 µM), for inactives: top-dose activity, positive = more growth; active means well fitted rising curve with a large enough effect; inconclusive means small, poorly fitted or top-dose-only effect; inactive means no such curve, though single readings can be large or run the other way; note: nearly all actives have a fitted effect of over 50% in size
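Compounds were scored for reversing the slow growth caused by influenza A NS1 in S. cerevisiae, measured by optical density at 600 nm. Assay medium contained 2% galactose at pH 6.0; NS1-free yeast of the same strain were the positive control.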
The depositor's hits bear a star; ? = inconclusive; · = not tested or not shown; & = joins results of further samples; [ ] = dose if it differs, or a comment. Unless noted, calls come from the whole dose curve; as a rule, active = well fitted curve in the direction sought with a large enough effect; inconclusive = small, poorly fitted or top-dose-only effect, or another doubt; inactive = no such curve, though single readings can be large; an effect the other way counts as inactive or inconclusive. Potency is the fitted concentration of half-maximal effect.

SMILES	Cruzain noTriton	SARS PLP yeast	2A StopGo	MARV entry inh	Cruzain Triton	RE007 growth inh	Lassa entry inh	NS1 inh
COc1ccc(C(NC=O)c2cc(OC)c(OC)cc2Br)cc1OC (stereo unspecified)	9%	28%	-6%	-23%	-1.8%	30%	14%	1%
O=C1CC(C(=O)O)S/C(=N\NC(=O)c2ccccc2)N1 (stereo unspecified)	-5%	-2%	4%	1%	0.9%	3%	-3%	-5%
C=CCn1c(SCc2ccccc2)nc(O)cc1=O	0%	-8%	-7%	3%	1.8%	-13%	-2%	6.3µM*
COc1cccc(NC(=O)c2ccc(-c3ccccc3[N+](=O)[O-])o2)c1	·	-1%	5%	?	·	2%	?	·
O=C(Nc1ccc(F)c(Cl)c1)C1CCN(S(=O)(=O)c2ccc3c(c2)CCCN3C(=O)C2CCC2)CC1	-20%	·	?	·	-2.6%	·	?	·
O=C(CCS(=O)(=O)c1ccc(F)cc1)Nc1ccc(N2CCN(Cc3ccccc3)CC2)cc1	·	6%	-16%	18%	·	24%	0%	·
O=C(Nc1ccc(C2CC2(Cl)Cl)cc1)c1cccc([N+](=O)[O-])c1 (stereo unspecified)	·	-8%	-34%	?	·	3%	?	-29%
COc1cccc(CNC(=O)Cc2c(C(=O)O)c(C)cn2C)c1	0%	·	-6%	·	2.9%	·	17%[46.1 µM]	·
Cc1ccc(C)c(NC(=O)CSc2nnc([C@@H](N)Cc3ccccc3)o2)c1	5%	-2%	-21%	-2%	-12%	16%	17%	11%
Cc1ccc(C2c3c(oc4ccccc4c3=O)C(=O)N2c2ccc(C)cn2)cc1 (stereo unspecified)	1%	·	-9%	?	0.0%	·	-3%[46.1 µM]	·
COc1ccc(-c2nn(C)c3sc(C(=O)N4CCN(c5cccc(C)c5C)CC4)cc23)cc1OC	-10%	·	0%	10%[46.1 µM]	1.4%	·	10%[46.1 µM]	·
CC1(C)Cc2nc3sc4c(SCC(=O)NC(c5ccccc5)c5ccccc5)ncnc4c3cc2CO1	-8%	1%	21%	18%	1.4%	8%	?	7%
CC(=O)c1cccc(S(=O)(=O)Nc2cccc(S(=O)(=O)NC3=NCCC3)c2)c1	7%	?	51%[activator]	36%	1.6%	-11%	-2%	15%
O=C(CN1C(=O)COc2ccccc21)N(Cc1ccc2c(c1)OCO2)CC1CCCO1 (stereo unspecified)	-3%	7%	-13%	-19%	4.0%	-2%	-3%	-2%
CSc1nc(NCCN(C)C)c2sc3nc(-c4ccco4)c4c(c3c2n1)CCC4	·	·	9%	?	·	-12%	-11%	·
COc1ccc(C(=O)NC2CCCc3c2cnn3-c2ccc(C)c(C)c2)c(OC)c1OC (stereo unspecified)	·	-13%	?	·	·	0%	·	-115%
COc1ccc(CCNS(=O)(=O)c2cccc(F)c2)cc1OC	-2%	4%	15%	-3%	-5.2%	18%	0%	-4%
Cn1c(=O)c(-c2cc(=O)[nH][nH]2)c(O)c2ccccc21	·	9%	-3%	?	·	-15%	8%	13%
CCc1cccc(OCCCCNCCOC)c1	7%	-4%	-4%	1%	7.7%	-10%	-9%	-28%
COC(=O)Oc1nsnc1N1CCOCC1	-7%	5%	·	-3%	1.3%	-11%	4%	-40%
Cc1ccc(NC(=O)C2=CC(c3ccc(C)cc3)=NS(=O)(=O)N2C)cc1	·	-8%	-8%	·	·	-6%	·	7%
NNC(=O)c1nc[nH]c1C(=O)Nc1ccccn1	·	14µM*	6%	·	·	5%	·	7%
COc1cccc(CNC(=O)c2ccc3c(c2)nc2n3CCOC2)c1OC	7%	·	-4%	·	2.1%	·	6%[46.1 µM]	·
S=c1[nH]nc(-c2cc(-c3ccccc3)n[nH]2)n1/N=C/c1c2ccccc2cc2ccccc12	·	1%	0%	?	·	-10%	-44%[46.1 µM]	-38%
Cn1c(=O)c2c(ncn2CC(=O)Nc2nc3ccc(F)cc3s2)n(C)c1=O	-9%	4%	11%	3%	-29%	2%	18%	10%
O=S(=O)(c1cccc2ccccc12)N1CCSC1	-4%	-17%	18%	17%	-11%	-6%	19%	-10%
CC(C)c1ccc2oc(-c3cccc(NC(=O)c4ccc5c(c4)OCCO5)c3)nc2c1	2%	·	4%	3%[46.1 µM]	-3.3%	·	3%[46.1 µM]	·
Cc1nc(NC(=O)c2cc3c(C)nn(-c4ccccc4)c3s2)sc1C(=O)Nc1ccccc1	-2%	-17%	-6%	0%	-1.9%	-3%	18%	5%
CCOc1ccccc1N1CCN(C(=S)NC(=O)C23CC4CC(CC(C4)C2)C3)CC1	-2%	14%	-28%	?	-3.1%	6%	?	1%
COc1ccccc1N1CCN(Cc2ccc(Cl)cc2Cl)CC1	2%	-7%	·	?	0.7%	-16%	-16%	-5%
Fc1ccc(-c2cnn3c(-c4ccncc4)ccnc23)cc1	·	0%	-17%	9%[46.1 µM]	·	-4%	?	·
O=S(=O)(c1ccc(-n2cnnn2)cc1)N1CCN(c2ccccc2F)CC1	5%	-1%	-3%&-11%	8%&8%[46.1 µM]	-1.7%	2%	10%[46.1 µM]	0%
Cc1ccc(NC(=S)N2CCC(NC(=O)c3ccccc3)CC2)cc1	·	0%	1%	8%[46.1 µM]	·	10%	-21%[46.1 µM]	24%
CN(Cc1ccccc1)C(=O)c1cccc(N2C(=O)NC3CC2(C)Oc2ccccc23)c1 (stereo unspecified)	13%	2%	-10%	5%	1.5%	12%	-3%	-9%
CCc1ccc(CNCc2cccs2)cc1	·	0%	47%[activator]	6%[46.1 µM]	·	-19%	·	0%
Cc1ccc(C)c(N2CCN(C(=O)CN3C(=O)c4ccccc4C3=O)CC2)c1	1%	-6%	?	-7%	-4.9%	-16%	-1%	-5%
O=C(C1CC=CCC1)N1CCN(C(=O)C2CC=CCC2)CC1 (stereo unspecified)	5%	-28%	-7%	7%	-0.3%	7%	-2%	-4%
COC(=O)c1ccc2[nH]c(C)c(CN3CCCC3)c(=O)c2c1	-2%	1%	-6%	10%&-7%	-0.3%	?	8%	-7%
COc1ccc2nc(NC(=O)CSc3nnc(C)s3)sc2c1	-13%	-2%	54%[activator]	?	0.2%	17%	-1%	13%
COc1ccccc1N1CCN(C(=S)Nc2ccc(F)cc2)CC1	·	-1%	-16%	-21%[46.1 µM]	·	-19%	-34%[46.1 µM]	2%
Cc1cc(S(=O)(=O)Nc2cc3c(cc2C)n(C)c(=O)c(=O)n3C)ccc1F	-9%	·	4%	·	-3.4%	·	20%[46.1 µM]	·
CN(C)CCCOC(=O)COc1ccc(Br)cc1	·	0%	-6%	·	·	19%	·	3%
CC(C)CN1C(=O)c2ccc(C(=O)Nc3nccs3)cc2C1=O	10%	2%	37%[activator]	3%	-6.2%	2%	?	-16%
CC(=O)Nc1ccc(/C=N/NC(=O)c2cccs2)cc1	·	-2%	30%[activator]	-14%[46.1 µM]	·	1%	-29%	·
CCC(=O)Nc1ccc(/C(C)=N\NC(=O)c2ccc(C)s2)cc1	-6%	-2%	-16%	?	-5.7%	11%	0%	-1%
CCN1CCCc2cc(CN(CCN3CCOCC3)C(=S)Nc3cccc(Cl)c3)ccc21	·	8%	6%	?	·	-24%	?	·
CC1CCN(S(=O)(=O)CCNC(=O)c2ccccc2)CC1	·	5%	-11%	-4%	·	21%	0%	·
COCCCNCC(=O)Nc1ccc(OC(F)(F)F)cc1	1%	-3%	-2%	?	1.4%	0%	-28%	-14%
COc1ccc(OC)c2sc(N3CCN(C(=O)c4ccc([N+](=O)[O-])s4)CC3)nc12	·	-26%	-22%	-7%	·	-13%	-15%	·
O=C(Nc1nc(-c2cccc([N+](=O)[O-])c2)cs1)c1cccc([N+](=O)[O-])c1C(=O)O	·	0%	3%	20%[46.1 µM]	·	1%	0%[46.1 µM]	-2%

(continued)
SMILES	Cruzain noTriton	SARS PLP yeast	2A StopGo	MARV entry inh	Cruzain Triton	RE007 growth inh	Lassa entry inh	NS1 inh
CCc1c(C)sc2c1CCN(C(=O)Nc1cc(C)ccc1OC)C2c1ccc(F)cc1 (stereo unspecified)	?	·	?	·	0.0%	·	1%[46.1 µM]	·
COc1cc(C=O)ccc1OCCOCCOc1c(C)cc(Cl)cc1Cl	?	-6%	-25%	-27%	-15%	-22%	-17%	22%
O=S(=O)(c1cccs1)N1CCC(CO)(Cc2cccc(F)c2)CC1	·	0%	0%	-18%[46.1 µM]	·	-10%	-8%	-2%
COc1ccc(-c2ncc3ccccn23)cc1OC	-8%	0%	36%[activator]	2%	-7.8%	-6%	5%	19%
Cc1ccc(C)c(NC(=S)N2CCN(Cc3ccccc3)CC2)c1	·	0%	-26%	·	·	4%	·	10%
COc1ccc(N2CCN(C(=O)C(Cc3ccccc3)n3cccc3)CC2)cc1 (stereo unspecified)	5%	-10%	?	3%	-5.3%	11%	·	-2%
COc1ccc(-c2nnc(SCC(=O)N3CCC(Cc4ccccc4)CC3)o2)cc1OC	?	-6%	?	17%&17%	0.6%	10%	2%	-49%
CCOc1cccc2cc(C(=O)N3CC(C)OC(C)C3)c(=O)oc12 (stereo unspecified)	·	-2%	-4%	·	·	-8%	·	-34%
COc1ccc(NC(=O)Nc2nnc(SCC(=O)Nc3cccc(C)c3C)s2)cc1	-10%	·	21%	·	-0.5%	·	?	·
Cc1c(Cl)cccc1NC(=O)Cc1cccs1	·	-3%	16%	·	·	16%	·	-12%
Cc1ccccc1NC(=O)/C=C/c1cccs1	·	-9%	45%[activator]	?	·	-18%	-3%	·
COc1ccc(/C=C/C(=O)N(C)Cc2cccs2)cc1S(=O)(=O)N1CCOCC1	·	0%	49%[activator]	?	·	-2%	?	·
O=C(COc1ccc(Cl)cc1)OCc1csc(Nc2ccccc2)n1	0%	-30%	-5%	25%	-9.5%	-25%	19%	-56%
O=C(CCn1c(=O)c2ccccc2n(Cc2ccccc2)c1=O)NCc1ccc2c(c1)OCO2	-29%	1%	20%	0%	0.0%	-2%	13%	5%
COc1ccc(C(=O)NN2CCOCC2)cc1[N+](=O)[O-]	·	1%	?	·	·	28%	·	5%
